KCNQ2 enhance: enhances the rat KCNQ2 potassium channel; CHO-K1 KCNQ2, FluxOR thallium flux fluorescence; stronger effect = higher value; B-score at 10 µM; actives 0.54% (n = 310,000); O88943; AID 2239;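 active = fluorescence ratio B-score at least 3 SD of library B-scores, with initial fluorescence B-score within 3 SD, cut at about 5.3 in these data; same plate scores as AID 2156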;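 note: B-score of peak minus minimum over baseline fluorescence ratio after K+ and Tl+ stimulus; positive B-score means potentiation of KCNQ2 with more thallium influx and brighter signal; only the inactives scoring about 0 or higher are listed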
Target sequence (O88943 whole entry, looked up): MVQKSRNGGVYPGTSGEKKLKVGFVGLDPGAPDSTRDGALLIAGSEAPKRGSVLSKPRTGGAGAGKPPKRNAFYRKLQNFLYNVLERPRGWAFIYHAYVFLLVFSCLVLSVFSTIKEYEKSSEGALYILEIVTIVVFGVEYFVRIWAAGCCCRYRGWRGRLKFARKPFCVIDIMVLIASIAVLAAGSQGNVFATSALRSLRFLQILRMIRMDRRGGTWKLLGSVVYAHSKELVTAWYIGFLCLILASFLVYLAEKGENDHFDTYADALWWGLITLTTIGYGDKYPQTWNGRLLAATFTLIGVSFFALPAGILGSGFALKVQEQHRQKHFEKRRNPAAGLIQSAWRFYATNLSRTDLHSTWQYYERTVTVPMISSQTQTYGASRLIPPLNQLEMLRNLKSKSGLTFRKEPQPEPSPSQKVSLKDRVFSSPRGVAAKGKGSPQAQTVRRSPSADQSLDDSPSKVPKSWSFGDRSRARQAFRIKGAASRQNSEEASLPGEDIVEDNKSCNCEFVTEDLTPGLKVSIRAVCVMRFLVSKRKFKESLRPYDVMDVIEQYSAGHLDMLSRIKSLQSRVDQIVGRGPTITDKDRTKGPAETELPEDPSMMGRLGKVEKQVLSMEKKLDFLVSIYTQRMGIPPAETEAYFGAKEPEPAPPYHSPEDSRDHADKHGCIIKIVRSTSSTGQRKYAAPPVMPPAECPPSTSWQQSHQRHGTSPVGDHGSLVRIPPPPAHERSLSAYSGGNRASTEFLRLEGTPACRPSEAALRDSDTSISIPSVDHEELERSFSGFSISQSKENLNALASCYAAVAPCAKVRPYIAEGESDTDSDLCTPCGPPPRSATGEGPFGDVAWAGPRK
KCNQ2 enhance baseline: recorded beside KCNQ2 enhance, whose call it bears; B-score; compound at 10 µM; measured here: initial fluorescence intensity artifact check;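 brightness before thallium and not channel activity; 0 = typical well and far values either way flag optical interference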
An asterisk follows results filed as active. A portion of the library; rates above refer to the full screens.

Start of the data: the first 4 records (preview)
Each structure is followed by: KCNQ2 enhance, KCNQ2 enhance baseline
CCn1c(COc2ccc(OC)cc2)nnc1SCc1nc2ccccc2c(=O)[nH]1
    0.47, 0
CCOc1cccc(C(=O)NC(=S)Nc2ccc(Cl)cc2C(=O)O)c1
    2.1, -0.26
CC(NC(=O)c1ccccc1Cl)C(=O)O (stereo unspecified)
    0.35, -0.69
CN(C)S(=O)(=O)Nc1ccccn1
    0.12, 1.4

The list itself (from the top)
Each structure is followed by: KCNQ2 enhance, KCNQ2 enhance baseline
CCn1c(COc2ccc(OC)cc2)nnc1SCc1nc2ccccc2c(=O)[nH]1
    0.47, 0
CCOc1cccc(C(=O)NC(=S)Nc2ccc(Cl)cc2C(=O)O)c1
    2.1, -0.26
CC(NC(=O)c1ccccc1Cl)C(=O)O (stereo unspecified)
    0.35, -0.69
CN(C)S(=O)(=O)Nc1ccccn1
    0.12, 1.4
COc1ccc(C(=O)Nn2cnc3ccccc3c2=O)c(OC)c1
    1.6, 0.19
COc1ccc(N(C(=O)Cn2nnc3ccccc32)C(C(=O)NCc2ccco2)c2cccnc2)cc1 (stereo unspecified)
    0.27, 0.16
COc1ccc(/C=N/Nc2cc(=O)n(C)c(=O)n2C)cc1OC
    1.4, -0.14
Cc1nc(NC(=O)C2CC2)sc1C(=O)Nc1ccc(Br)cc1
    0.66, -0.11
C=CC[n+]1c(-c2ccc(C)cc2)csc1NNC(=O)Nc1ccccc1
    0.12, -2.2
COCCNC(=S)N/N=C(\C)c1ccc(OC)cc1
    0.07, 1.1
NC(=O)CSC1=Nc2ccccc2C2=NC(CCC(=O)NCc3ccc(F)cc3)C(=O)N12 (stereo unspecified)
    1.2, -0.42
CCCCN(C(=O)CSCC(=O)Nc1cccc(C)c1)c1c(N)n(CCCC)c(=O)[nH]c1=O
    0.49, 0.9
O=C(NCCCN1CCN(c2ccccc2F)CC1)C1CCN(S(=O)(=O)c2cccs2)CC1
    0.16, 0.56
N#Cc1c(C(F)(F)F)cc(-c2ccccc2)nc1SCCN1CCOCC1
    0.79, 0.66
O=C(NCC1CCCO1)C(=O)N/N=C/c1ccc(OCc2ccccc2Cl)cc1 (stereo unspecified)
    2.2, 1.8
O=C1CCCCN1CCC(=O)N1CCCC(Nc2ccc(F)c(F)c2)C1 (stereo unspecified)
    0.08, -0.73
COc1cccc(C(=O)NCCS(=O)(=O)NC2CCCC2)c1
    0.65, 0.57
CC(C)c1cc(Br)ccc1OCCN1C(=O)NC(C)(C)C1=O
    2.8, 2.2
O=C(NNC(=O)c1cc2cc(Br)ccc2oc1=O)c1ccc(O)cc1
    0.29, 0.66
COc1ccc(NC(=O)COC(=O)c2ccco2)c([N+](=O)[O-])c1
    0.18, -2.4
Cc1nn(-c2ccccc2)c2sc(C(=O)NCCN3CCOCC3)cc12
    0.46, -2.1
CC(=O)NC(CC(=O)Nc1ccc2c(c1)OCCO2)c1ccccc1 (stereo unspecified)
    0.12, 0.31
CCSc1ccccc1C(=O)NCc1ccc2c(c1)OCO2
    2, -0.79
CNC(=O)CN(c1ccc(C(C)C)cc1)S(C)(=O)=O
    0.91, 0.17
Cc1ccc2nc(-c3ccccc3N)[nH]c2c1
    2.2, 0.8
COc1ccc2nc(SCC(=O)NC(C)(C)C)[nH]c2c1
    0.37, -1.8
C=CCN1C(=Nc2cccnc2)SCC1(O)c1ccc(C)cc1 (stereo unspecified)
    0.58, -0.23
Cc1cc(NC(=O)COC(=O)c2c(C)noc2C)ccc1Br
    0.47, 1
CCCC(=O)Nc1nc2c(s1)COc1ccccc1-2
    0.18, -1.4
COc1cccc(N2CCN(C(=O)CCC(=O)N3CCOc4ccc(C)cc43)CC2)c1
    1.5, -0.81
CCOC(=O)c1csc(NC(=O)CSc2nnnn2-c2ccc(OC)cc2)n1
    0.08, 1.2
O=C(CNS(=O)(=O)c1ccc(Br)cc1)NCc1cccnc1
    0.03, 0.11
COc1nc(C)ccc1-c1noc(-c2ccco2)n1
    0.5, 0.17
CC1=Nn2c(nnc2-c2ccco2)SC1
    1.3, -1.7
CC12CCC(C(=O)Nc3ccncc3)(CC1O)C2(C)C (stereo unspecified)
    0.8, -2.6
CC(C)COC(=O)c1cc(=O)[nH]c2ccccc12
    0.91, -1.2
CCC(=O)N(C1=C(NC(C)C)C(=O)c2ccccc2C1=O)C(C)C
    0.01, 0.19
CC(=O)Nc1ccc(S(=O)(=O)N2CCSC2C(=O)O)cc1 (stereo unspecified)
    0.49, -0.89
CCC1Sc2ccc(S(=O)(=O)CCC(=O)N3CCc4ccccc43)cc2NC1=O (stereo unspecified)
    0.53, 0.22
O=C(NCCS(=O)(=O)N1CCCCCC1)c1ccc(F)cc1
    0.17, 1
C=CCN1C(=O)S/C(=C/c2ccsc2)C1=O
    0.14, 0.49
CC1CCCN(C(=O)Cn2c3ccccc3c3nc4n(c(=O)c32)CCS4)C1 (stereo unspecified)
    0.88, 0
Cn1cccc1Cc1nnc(SCC(=O)NCC2CCCO2)n1-c1ccc(F)cc1 (stereo unspecified)
    0.71, 2.3
C/C(=N\NC(=O)CSCc1ccc(Cl)cc1)c1ccc(NC(=O)c2ccccc2)cc1
    0.15, 0.04
COC(=O)c1[nH]c2c(c1C)C(=O)CC(c1cccs1)C2 (stereo unspecified)
    0.94, -0.05
COc1ccc(/C=C/C(=O)NC(=S)NCC2CCCO2)cc1 (stereo unspecified)
    0.3, 0.04
Cc1cc(C)cc(Nc2nc3ccccc3c(=O)[nH]2)c1
    1.5, -1.1
Cc1ccc(NC(=O)CSc2n[nH]c(C)c2[N+](=O)[O-])cc1C
    1.7, -0.34
CCOC(=O)C1CCCN(c2c(N3CCN(C4CCCCC4)CC3)c(=O)c2=O)C1 (stereo unspecified)
    0.05, 1.9
O=c1cc(CN2CCN(c3ccccc3)CC2)nc2scc(-c3ccccc3)n12
    0.26, -0.56
CC(=O)OC1OCCOC1NC(=S)Nc1cccc(C(F)(F)F)c1 (stereo unspecified)
    0.07, 1.4
CC(=O)NC12CC3CC(C1)CC(C(=O)N(C)CC(=O)Nc1ccccc1Cl)(C3)C2
    0.87, 1
CCCOc1ccc(C(=O)Nc2ccc(N(C)C)cc2)cc1
    2.6, 0.04
COc1ccccc1Nc1nc2cc(C)ccc2cc1C#N
    0.04, -0.42
N#Cc1ccsc1NC(=O)CSc1ncnc2ccccc12
    0.1, 0.51
Cc1nn(-c2ccccc2)c(Cl)c1/C=N/Nc1ccc(S(=O)(=O)Nc2ccccc2C(=O)O)cc1[N+](=O)[O-]
    0.79, 0.34
COC(=O)c1cn(CC(=O)N2CCCCC2C)c2ccccc12 (stereo unspecified)
    0.16, -1.2
COCC(=O)N1CCC(Oc2ccc(C(=O)NC(C)c3nccs3)cc2)CC1 (stereo unspecified)
    0.98, -0.68
Nc1nc(C(c2ccccc2)c2ccccc2)cs1
    0.85, 0.47
CC(=O)c1cc2c(cc1NS(=O)(=O)c1cccc(C(=O)O)c1)OCO2
    0.41, -0.05

(further entries)
Each structure is followed by: KCNQ2 enhance, KCNQ2 enhance baseline
O=C(NNC(=O)c1cccnc1)Nc1cccc2ccccc12
    0.9, 0.25
O=C(Nc1ccccc1C(=O)N1CCOCC1)C1CC(=O)N(C2CCCC2)C1 (stereo unspecified)
    1.3, 0.01
Cc1cc(C(=O)Nc2ccc(F)cc2F)on1
    2.3, 0.02
Cc1cc2c(SCC(=O)NC3CCCCC3)ncnc2s1
    1.5, -0.64
Cc1nn(C)c(C(=O)NCc2ccc(Cl)cc2)c1Cl
    3.4, 0.22
COc1ccc(C(=O)C2CCCN(Cc3cccn3-c3nccs3)C2)cc1OC (stereo unspecified)
    0.5, 1.2
CCOc1cc(NC(=S)NCC2CCCO2)c(OCC)cc1NC(=O)c1ccccc1C (stereo unspecified)
    0.54, 1.6
COC/C=C/C1=CC2=CC(=O)C(C)(OC(=O)c3cnc4ccccc4n3)C(=O)C2=CN1C1CCCC1 (stereo unspecified)
    0.15, -0.11
Cc1ccc(CS(=O)(=O)c2nc3c(c(N(C)C)n2)CCCC3)cc1
    0.2, -2
Cc1c(C(=O)N2CCN(c3ccccn3)CC2)sc2ncnc(N3CCOCC3)c12
    0.04, -0.02
CCOC(=O)c1ccc(NC(=S)Nc2ccccn2)cc1
    0.48, -0.21
CN(C)C(/C=C/Nc1ccc(F)cc1F)=C(C#N)C#N
    0.65, -0.69
CCOc1cccc(-c2nnc(SCC(=O)Nc3ccc(OC)c(OC)c3)n2N)c1
    0.82, -1.8
Cc1cc(/N=C/N(C)C)on1
    0.09, 0.21
COc1ccc(CCN2C(=O)N[C@@H](CCC(=O)O)C2=O)cc1
    0.87, 1.6
CNC(=O)c1cc2cc(OC)ccc2n1CCN(Cc1ccccc1)Cc1ccccc1
    0.41, -1.2
Cc1cc(C)cc(NC(=O)CN2CCC(NC(=O)Cc3ccccc3)CC2)c1
    0.42, 0.63
COc1ccc(OC)c(NC(=O)CNC(=O)Cn2cnc3sc(C)cc3c2=O)c1
    2.5, -0.03
Cc1ccc(C(=O)Nc2nc(-c3ccc([N+](=O)[O-])cc3)cs2)o1
    0.46, 1
COc1ccc(C2/C(=C(/O)c3ccc4c(c3)CC(C)O4)C(=O)C(=O)N2CCCn2ccnc2)cc1 (stereo unspecified)
    0.01, 1.1
CC(=O)Nc1ccc(NS(=O)(=O)c2ccc3c(c2)n(C)c(=O)n3C)cc1
    0.18, -0.43
CCc1nnc(NC(=O)CSc2ncc(-c3ccccc3)n2C)s1
    2.2, 0.5
CC(OC(=O)c1ccc([N+](=O)[O-])s1)C(=O)Nc1ncc(Cl)cc1Cl (stereo unspecified)
    0.01, 0.08
COCCCNc1nc2c(c(=O)n(Cc3ccc(OC)cc3)c(=O)n2C)n1C
    1.7, -1.9
O=C(CC(=O)Nc1cc(Cl)ccc1Cl)Nc1cc(Cl)ccc1Cl
    1.2, -0.59
O=C(Nc1ccc(-c2nnco2)cc1)c1ccccc1
    1.1, 0.3
COc1cccc(CN2CCN(Cc3ccc4c(c3)OCCO4)CC2CCO)c1 (stereo unspecified)
    0.46, 0.7
COc1ccc(OCc2nn3c(Cn4cnc5ccccc54)nnc3s2)cc1
    1.2, -1.3
Cc1c(C(=O)N2CCCC2)sc(NC(=O)c2cccs2)c1C#N
    0.08, -0.51
CCn1nc(NC(=O)C(C)C)c2cc3cccc(C)c3nc21
    0.4, -0.45
N=c1c(C(=O)NCc2ccco2)cc2c(=O)n3ccccc3nc2n1C1CCCC1
    0.63, 0.67
Clc1nn2cnnc2c2ccccc12
    0.02, 0.17
OCCc1c[nH]c2cc(F)ccc12
    2, 1.3
CCOc1ccc(NC(=O)CCC(=O)NNC(=O)c2ccco2)cc1
    0.62, 0.01
CCc1nnc2n1N=C(c1ccc(Cl)cc1Cl)CS2
    0.73, 1.5
CC(C)(C)[C@H]1C=C(C(=O)O)O[C@@H](OCc2ccc(CO)cc2)C1
    0.46, 0.19
COc1ccccc1NC(=O)CCCn1c(=S)[nH]c2ccccc2c1=O
    0.66, 0.12
CCCCN(C(=O)CSc1cc(C)c2ccc(OC)cc2n1)c1c(N)n(Cc2ccccc2)c(=O)[nH]c1=O
    0.34, 0.47
CCc1nnc(NC(=O)c2cc3ccccc3oc2=O)s1
    0.61, -0.07
CN(C)N=Nc1ccc(S(N)(=O)=O)cc1
    0.04, 1.1

Full records from above:
`COc1ccc(OCc2nn3c(Cn4cnc5ccccc54)nnc3s2)cc1` across the screens: KCNQ2 enhance: 1.2; KCNQ2 enhance baseline: -1.3
`COCCCNc1nc2c(c(=O)n(Cc3ccc(OC)cc3)c(=O)n2C)n1C` across the screens: KCNQ2 enhance: 1.7; KCNQ2 enhance baseline: -1.9

Additional entries
Each structure is followed by: KCNQ2 enhance, KCNQ2 enhance baseline
OCCc1c[nH]c2ccc(C(F)(F)F)cc12
    1.7, 1.2
Cc1c(C(=O)NC(=S)NCc2cccnc2)cccc1[N+](=O)[O-]
    0.13, -1.5
Cc1ccc(S(=O)(=O)Nc2nc(C)c(C(=O)NNS(=O)(=O)c3cc(C)ccc3C)s2)cc1
    1.2, -1.4
CC(C)Cc1nnc(NC(=O)CN2C(=O)NC3(CCCC3)C2=O)s1
    1.7, -0.33
CCN(CC)C(=O)c1[nH]cnc1C(=O)NCC(=O)OC(C)(C)C
    2.9, -1.4
Cc1cc(C)nc(SCSc2nc(C)cc(C)n2)n1
    1.1, -0.46
Cc1cc(C)c(O)c(-c2cc(C(=O)Nc3c(C)n(C)n(-c4ccccc4)c3=O)[nH]n2)c1
    1.8, 0.03
COc1ccccc1N(C(=O)c1ccco1)C(C(=O)NC1CCCC1)c1ccncc1 (stereo unspecified)
    0.51, 2.3
O=C(Nc1ccccc1)N1CCN(CCc2ccccc2)CC1
    1.2, 0.96
O=c1c2cc(NC(=S)NC3CC3)ccc2nc2n1CCCCC2
    0.05, 0.64
CC(C)OC(=O)c1cccc(-c2ccc(C=O)o2)c1
    1.7, -0.36
Cc1ccc(-c2ccc(S(=O)(=O)N3CCN(C)CC3)cc2)cc1
    0.13, 2.3
COCC(=O)N1CCC(Oc2ccc(C(=O)N(C)CCCC3CCCC3)cc2)CC1
    0.07, -1.5
Cc1ccccc1C(=O)Nc1ccnn1C1CCN(C(=O)c2ccoc2)CC1
    1.4, 0.39
O=C(CNC(=O)c1ccc(OC(F)F)cc1)NCc1ccccn1
    0.02, 0.67
CCCc1cc(C(=O)Nc2sc3c(c2C#N)CCC3)no1
    2.1, 2.5
C=CCNCCCOc1ccc(C)cc1Br
    0.3, 1.4
COCCCNc1nc2ccccc2nc1NS(=O)(=O)c1ccc(C)cc1
    0.69, -0.69
CCc1ccc(C(=O)NNc2ccc(C)c(Cl)c2)cc1
    1.6, -0.12

High-throughput results deposited in PubChem by Johns Hopkins Ion Channel Center.
